# KCNQ2 block = KCNQ2 potassium channel inhibitors, primary screen, cell-based, CHO-K1, FluxOR thallium flux, B-score (AID 2156) | 20 min; stronger effect = lower value; only compounds with negative scores are shown here; some inactives read as strong as hits | B-score at 10 µM | actives 1.1% (n = 310,000) | Potassium voltage-gated channel subfamily KQT member 2 (Rattus norvegicus), O88943;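 active means fluorescence ratio B-score at most minus 3 library SDs, with starting brightness B-score within 2 library SDs, cut at about -5.5 in these data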
# Target sequence (O88943 whole entry, looked up): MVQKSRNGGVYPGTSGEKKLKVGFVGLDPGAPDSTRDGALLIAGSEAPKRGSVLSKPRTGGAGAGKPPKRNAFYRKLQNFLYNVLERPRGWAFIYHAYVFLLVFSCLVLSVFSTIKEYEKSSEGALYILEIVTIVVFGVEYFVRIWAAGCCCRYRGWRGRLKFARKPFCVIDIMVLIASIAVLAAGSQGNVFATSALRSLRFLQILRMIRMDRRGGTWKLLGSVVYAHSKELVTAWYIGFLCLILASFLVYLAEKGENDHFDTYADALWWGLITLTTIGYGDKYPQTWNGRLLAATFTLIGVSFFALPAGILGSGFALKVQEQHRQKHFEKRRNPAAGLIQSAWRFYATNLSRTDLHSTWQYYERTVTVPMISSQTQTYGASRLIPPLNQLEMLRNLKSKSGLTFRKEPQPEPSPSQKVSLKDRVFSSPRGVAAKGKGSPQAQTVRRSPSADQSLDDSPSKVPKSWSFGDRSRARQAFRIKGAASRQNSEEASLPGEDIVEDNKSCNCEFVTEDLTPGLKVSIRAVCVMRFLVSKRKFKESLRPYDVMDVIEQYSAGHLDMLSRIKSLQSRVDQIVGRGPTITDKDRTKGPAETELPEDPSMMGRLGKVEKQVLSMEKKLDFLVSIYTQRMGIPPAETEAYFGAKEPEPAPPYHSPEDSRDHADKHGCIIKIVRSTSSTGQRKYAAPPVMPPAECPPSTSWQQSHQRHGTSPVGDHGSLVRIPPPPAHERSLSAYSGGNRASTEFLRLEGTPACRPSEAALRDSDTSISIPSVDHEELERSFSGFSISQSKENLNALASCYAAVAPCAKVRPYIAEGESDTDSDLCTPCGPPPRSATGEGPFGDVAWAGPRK
# KCNQ2 block baseline = also measured in KCNQ2 block; calls as there; B-score; measured here: initial fluorescence intensity artifact check;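 brightness before thallium and not channel activity; 0 = typical well and far values either way flag optical interference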
# An asterisk follows results filed as active; i = inactive.
# Below each compound: KCNQ2 block, KCNQ2 block baseline
O=C(CCCC(=O)N(CC(=O)NC1CCCCC1)CC1CCCO1)Nc1ccccn1 (stereo unspecified)
  i, 0.64
Cc1nc(NC(=O)c2ccccc2)sc1-c1csc(Nc2ccc(Cl)cc2)n1
  i, -1.49
O=C1CSC(c2ccccc2[N+](=O)[O-])N1c1ccc(O)cc1 (stereo unspecified)
  i, -0.68
Cc1cc(N/N=C/c2ccccc2)nc(N2CCOCC2)n1
  i, -2.5
O=C(CSc1nc2ncc(Cl)cc2[nH]1)Nc1cccc(F)c1
  i, 0.73
Cn1nnnc1SCc1csc(C2C(C#N)=C(N)OC3=C2C(=O)CCC3)c1 (stereo unspecified)
  i, -0.36
Cc1ccccc1CC1(CO)CCCN(C(=O)CCC(=O)c2ccccc2)C1 (stereo unspecified)
  -8.55*, -0.91*
O=C(/C=C/c1cccs1)NC1CCS(=O)(=O)C1 (stereo unspecified)
  i, -2.44
CCN1CCCC1CNC(=O)c1cc2c(C)nc3ccccc3c2o1 (stereo unspecified)
  i, 1.2
O=C(Nc1nnc(C2=COCCO2)o1)c1cccc(C(F)(F)F)c1
  i, 0.24
O=C(COc1cccnc1[N+](=O)[O-])N1CCN(S(=O)(=O)c2ccccc2)CC1
  i, 2.04
CCCn1c(O)c(N=Nc2ccc3ccccc3n2)c2ccccc21
  i, 0.45
O=C(CN1CCc2cc3c(cc2C1)OCCCO3)Nc1ccccc1
  i, -0.68
CCSc1nnc(NC(=O)[C@H](C)N2C(=O)C3CC=CCC3C2=O)s1 (stereo partly specified)
  i, -2.09
Cn1cccc1/C=N/NC(=O)c1ccn[nH]1
  i, -2.55

# The results go on:
# Below each compound: KCNQ2 block, KCNQ2 block baseline
Cc1cc(C)c(C#N)c(Nc2cccc(Br)c2)n1
  i, -0.54
C[N+](C)(C)CCNC(=O)c1cc[n+](Cc2ccccc2)c(/C=N/O)c1
  i, 9.66
CC12CC(NC(=O)N1c1cccc(C(=O)N3CCN(c4ccccn4)CC3)c1)c1ccccc1O2 (stereo unspecified)
  i, -0.04
CCn1cc(C(=O)N2CCN(c3ccccc3)CC2)c(=O)c2cc(S(=O)(=O)N3CCOCC3)ccc21
  i, 0.62
O=C(O)c1ccc(Sc2nnc3ccccn23)c([N+](=O)[O-])c1
  i, 4.14
COCCNC(=O)c1onc(CSc2ccc(F)c(F)c2)c1C(=O)O
  i, 1.5
O=C1OC(N2CCN(c3ccccn3)CC2)c2ccccc21 (stereo unspecified)
  i, 0.36
CCOc1ccccc1N(C(=O)c1snc(C(N)=O)c1N)C(C(=O)NCCC(C)C)c1ccco1 (stereo unspecified)
  i, -0.24
CC(Sc1nc2cc(Cl)ccc2s1)C(=O)Nc1ccc2c(c1)OCO2 (stereo unspecified)
  i, -1.62
O=C(c1ccccc1Nc1ccc(SC(F)F)cc1)N1CCCCCC1
  i, 0.36
COc1cc(CCC(=O)Nc2cc(Cl)ccc2N2CCN(C)CC2)cc(OC)c1OC
  i, -0.08
CCCCN(CCCC)C(=O)c1cn(CC)c2cc(N3CCN(C)CC3)c(F)cc2c1=O
  i, 1.54
CCOC(=O)C1CCN(C(=O)c2ccc(OCC(=O)Nc3cccc(C(F)(F)F)c3)cc2)CC1
  -6.49*, -1.65*
Cn1c(=O)c2c(nc(CN3CCN(Cc4ccccc4)CC3)n2Cc2cccc(Cl)c2)n(C)c1=O
  i, 1.04
O=c1ccc(-c2ccc(S(=O)(=O)N3CCCCC3)o2)n[nH]1
  i, -0.31

# Arranged by length of the SMILES (ascending): some entries from above.
# Below each compound: KCNQ2 block, KCNQ2 block baseline
Cc1cc(C)c(C#N)c(Nc2cccc(Br)c2)n1
  i, -0.54
O=C(c1ccccc1Nc1ccc(SC(F)F)cc1)N1CCCCCC1
  i, 0.36
CC(Sc1nc2cc(Cl)ccc2s1)C(=O)Nc1ccc2c(c1)OCO2 (stereo unspecified)
  i, -1.62
O=C(O)c1ccc(Sc2nnc3ccccn23)c([N+](=O)[O-])c1
  i, 4.14
COc1cc(CCC(=O)Nc2cc(Cl)ccc2N2CCN(C)CC2)cc(OC)c1OC
  i, -0.08
CCOc1ccccc1N(C(=O)c1snc(C(N)=O)c1N)C(C(=O)NCCC(C)C)c1ccco1 (stereo unspecified)
  i, -0.24
CCOC(=O)C1CCN(C(=O)c2ccc(OCC(=O)Nc3cccc(C(F)(F)F)c3)cc2)CC1
  -6.49*, -1.65*

# (next part)
# Below each compound: KCNQ2 block, KCNQ2 block baseline
O=C(NC1CC1)C(Cc1ccccc1)NS(=O)(=O)c1ccccc1F (stereo unspecified)
  i, 2.24
O=C(NCc1ccccc1)c1csc2c1CCCC2
  i, 1.21
CCN1C(=O)/C(=C\c2cccc(OC(=O)c3ccco3)c2)SC1=S
  i, -0.68
O=C(O)c1cccc(NC(=O)c2ccccc2NC(=O)c2ccccc2F)c1
  i, 1.16
Nc1ccc(-c2nc(-c3ccccc3)nc3ccccc23)cc1
  i, -0.51
CC(C)C(=O)NC(Nc1cccc2cccnc12)C(Cl)(Cl)Cl (stereo unspecified)
  i, -0.89
NNC(=O)c1cc2ccccc2cc1NS(=O)(=O)c1ccccc1
  i, 0.08
COc1ccc(C2C3=C(CC(C)(C)CC3=O)Oc3ncn(CCCn4ccnc4)c(=N)c32)cc1 (stereo unspecified)
  i, 2.25
Cc1cccc(NC(=O)C(C)Oc2ccccc2C)n1 (stereo unspecified)
  i, 0.09
O=C(N=Nc1ccc(NOC(=O)c2ccccc2Br)cc1)c1ccccc1O
  i, 0.13
CC(C)(C)NC(=O)[C@@H]1CN(Cc2cccnc2)CCN1C[C@@H](O)C[C@@H](Cc1ccccc1)C(=O)N[C@H]1c2ccccc2C[C@H]1O
  i, -1.43
COc1ccc(NC(=O)C2CCCN(S(=O)(=O)c3c(C)[nH]c(=O)[nH]c3=O)C2)cc1 (stereo unspecified)
  i, 1.5
CC(=O)Nc1ccc(C2=NN(c3ccccc3)C(c3cccs3)C2)cc1 (stereo unspecified)
  i, 0.45
CC(C)N=C(NS(=O)(=O)c1ccccc1)C(Cl)(Cl)Cl
  i, -0.81
O=C1CC(c2ccccc2)=Nc2ccc(Br)cc2N1
  i, 0.1

# Next structures follow.
# Below each compound: KCNQ2 block, KCNQ2 block baseline
N=C1C(c2nc3ccccc3[nH]2)=C(O)CN1c1ccccc1
  i, 2.12
COc1ccc(Nc2nc(NC(C)(C)C)nc(N3CCCC3)n2)c(OC)c1
  i, 0.59
Cc1ccc(S(=O)(=O)NCC(c2ccco2)N2CCc3ccccc3C2)cc1 (stereo unspecified)
  i, -1.36
O=[N+]([O-])c1cc(C(F)(F)F)ccc1SCC(O)CO (stereo unspecified)
  i, 1
N#CC1(c2ccccc2)CCCN1C(=O)c1ccco1 (stereo unspecified)
  i, -0.82
COc1ccc(C(=O)N(C)c2ccccc2C(=O)NCCc2ccccc2)cc1
  i, -1.28
Cc1c(C)c2c(OCC(=O)N[C@@H](Cc3ccccc3)C(=O)O)cc3c(c2oc1=O)CCC(C)(C)O3
  i, 0.85
CSc1ncccc1C(=O)OCC(=O)c1ccc2c(c1)NC(=O)CO2
  i, -1.35
O=C(CSc1nc2ccccc2c(=O)[nH]1)Nc1ccc(S(=O)(=O)N2CCCC2)cc1
  i, 1.36
O=S(=O)(N/N=C\c1cccnc1)c1ccccc1
  i, 1.28
O=S(=O)(c1ccccc1)c1cnc(-c2ccccc2)nc1N1CCCCC1
  i, -0.52
Cc1cccc(NC(=O)CSc2nc(-c3ccccc3)c(C#N)c(=O)[nH]2)c1C
  i, 1.23
CCCCN1C(=O)CC(C(=O)O)C1c1ccc(OC)cc1 (stereo unspecified)
  i, 0.11
COc1ccc(CNC(=O)Nc2cc(C)ccc2C)cc1
  i, -0.1
Cn1c(N)c(C(=O)COC(=O)c2ccc3c(c2)OCCO3)c(=O)n(C)c1=O
  i, 0.77

# Following part.
# Below each compound: KCNQ2 block, KCNQ2 block baseline
CCOc1ccc(S(N)(=O)=O)cc1-c1nc2c(C(C)(C)C)nn(C)c2c(=O)[nH]1
  i, -0.24
CCC(C)(C)NC(=O)C(c1ccc(OC)cc1)N(C(=O)CCC(=O)Nc1cc(C)on1)c1ccc(OC)c(OC)c1 (stereo unspecified)
  i, 0.67
CCOC(=O)C1=C(OCc2ccc(Cl)cc2)C2C=C(C)C=CC2N=C1 (stereo unspecified)
  i, -0.58
O=c1oc2ccccc2cc1-c1nnc(NCc2ccco2)s1
  i, 0.82
COC(=O)c1ccc(NC(=S)NN2CCOCC2)cc1
  i, -1.66
COc1ccccc1N=c1oc2cc(O)ccc2cc1C(N)=O
  i, 0.98
Cc1ccc(OCCC(=O)OCC(=O)Nc2cc(S(=O)(=O)N(C)C)ccc2C)cc1
  i, 0.78
O=C(NCc1cccnc1)c1ccc(NC(=O)c2ccc(Br)cc2)cc1
  i, -0.54
Cc1ccc(NC2=C(NC(=O)c3ccccc3)C(=O)c3ccccc3C2=O)cc1Cl
  i, 0.75
COc1ccc(CN2CCCC(C(=O)Nc3cccc(-n4cccn4)c3)C2)c(F)c1 (stereo unspecified)
  i, -0.12
COc1ccc(CCNC(=O)CC2SC(=Nc3cc(C)cc(C)c3)NC2=O)cc1OC (stereo unspecified)
  i, 1.36
COc1ccc(-n2nc3cc(C)c(N)c(Br)c3n2)cc1
  i, 0.6
COc1ccc(-c2noc(CSc3nc4ccccc4c(=O)n3-c3ccccc3)n2)cc1
  i, 0.45
CCCc1cc(=O)oc2c(C)c(OCC(=O)NC3CC(C)(C)NC(C)(C)C3)ccc12
  i, 0.01
Cc1ccc(N2C(=O)CC(Sc3nc(-c4ccccc4)c4cc(Cl)ccc4n3)C2=O)c(C)c1 (stereo unspecified)
  i, 0.73

# Further structures.
# Below each compound: KCNQ2 block, KCNQ2 block baseline
COc1cccc(-c2nc(CS(=O)(=O)CC(=O)N3CCc4ccccc4C3)c(C)o2)c1
  i, 2.39
Cc1ccc(CNC(=O)C(Cc2ccccc2)NS(=O)(=O)c2ccc3c(c2)CCC(=O)N3)cc1 (stereo unspecified)
  i, -0.79
CC(C)CNS(=O)(=O)c1ccc(CCC(=O)Nc2cc(Cl)ccc2Oc2ccccc2)cc1
  i, 0.44
COC(=O)[C@]1(Cc2ccccc2)N[C@H](c2ccc(-c3ccc(Cl)c(Cl)c3)cc2)[C@@H]2C(=O)N(C)C(=O)[C@@H]21
  i, -2.31
O=C(NCc1ccco1)c1cnn2cccnc12
  i, -0.01
O=C(c1cccc(Cl)c1)N1CCN(C2CCCCC2)CC1
  i, 0.72
N#Cc1c(F)cccc1NCCCn1ccnc1
  i, 2.64
COc1cc(CN2CCC(C(=O)NC3CCCC3)CC2)cc(OC)c1O
  i, -0.24
CCOC(=O)C1CCCN(c2nc(C)nc3c2oc2ccccc23)C1 (stereo unspecified)
  i, 1.1
COc1ccc(O[C@H]2C=C[C@@H](c3ccccc3)O[C@@H]2COC(=O)CC/C(C)=N/O[C@H](C)c2cn([C@@H]3COC[C@H]3O)nn2)cc1
  i, -0.27
O=C(O)c1ccccc1OCc1nc2ccccc2s1
  i, 1.86
COc1ccccc1N1C(=O)c2cccnc2C1=O
  i, 1.36
COC(OC)c1ccnc(SCc2ccccc2Cl)n1
  i, -1.67
COc1ccc(C(O)(CCc2ccccc2)CCN2CCCCC2)cc1 (stereo unspecified)
  i, 1.2
CNC(=S)Nc1cccc([N+](=O)[O-])c1
  i, 3.04

# (listing goes on)
# Below each compound: KCNQ2 block, KCNQ2 block baseline
CCOC(=O)CN=C(NS(=O)(=O)c1ccc(Cl)cc1)c1ccccc1
  i, -2.32
CC(=O)NC1=NC(=O)/C(=C/c2cc(C)n(-c3ccc(NC(C)=O)cc3)c2C)S1
  i, -0.04
O=C(CSc1nccc(=O)[nH]1)Nc1cccc2ccccc12
  i, 1.16
Oc1cncc(Cc2ccccc2)c1
  i, 0.27
Cc1ccc(C2=CC(c3cccs3)n3nnnc3N2)cc1 (stereo unspecified)
  i, 2.86
CCOC(=O)C1=C(N)N(c2ccc(C)cc2)C2=C(C(=O)CCC2)C1c1cccs1 (stereo unspecified)
  i, -0.34
CCCCn1c(SCC(=O)NCc2cccs2)nc2c1c(=O)n(C)c(=O)n2C
  i, -0.27
CC(=O)N/C(=C/c1ccc2c(c1)OCO2)C(=O)N1CCOCC1
  i, 0.02
CCCCN(C(=O)c1cccc(S(=O)(=O)N2CCOCC2)c1)c1c(N)n(CCC)c(=O)[nH]c1=O
  i, 0.25
Cc1ccc(C)c(NC(=O)CN(C)C(=O)COc2cccc3c2OC(C)(C)C3)c1
  i, 0.01
CCN(CC(=O)Nc1c(F)cccc1F)C(=O)CSCC(=O)Nc1cccc(C)c1
  i, -1.11
CCOC(=O)c1ccc(Oc2nc(SC)nc(N(C)C)n2)cc1
  i, -0.06
CCOC(=O)N1CCC2(CC1)C(C#N)=C(N)OC1=C2C(=O)CCC1
  i, 2.2
COc1ccccc1C(=O)N1c2ccccc2Sc2ccccc21
  i, -0.32
Cc1ccc(OCCCC(=O)Nc2cc(Cl)ccc2-n2cncn2)cc1
  i, -0.58

# 4 compounds drawn at random from those above:
# Below each compound: KCNQ2 block, KCNQ2 block baseline
CCOC(=O)C1=C(N)N(c2ccc(C)cc2)C2=C(C(=O)CCC2)C1c1cccs1 (stereo unspecified)
  i, -0.34
CCOC(=O)CN=C(NS(=O)(=O)c1ccc(Cl)cc1)c1ccccc1
  i, -2.32
CCOC(=O)c1ccc(Oc2nc(SC)nc(N(C)C)n2)cc1
  i, -0.06
CC(=O)NC1=NC(=O)/C(=C/c2cc(C)n(-c3ccc(NC(C)=O)cc3)c2C)S1
  i, -0.04

# Other records follow:
# Below each compound: KCNQ2 block, KCNQ2 block baseline
COc1ccc(NC(=O)c2cc(-c3ccccc3)nc3c2c(C)nn3-c2ccccc2)c(OC)c1
  i, -0.47
Cc1cc(F)ccc1NC(=O)c1ccc(NS(=O)(=O)c2cc(C(C)(C)C)ccc2C)cc1
  i, 1.77
COC(=O)c1ccc(Oc2c(C)oc3c(CN4CCN(C)CC4)c(O)ccc3c2=O)cc1
  i, 0.69
O=C(CSCc1nc2scc(-c3cccs3)c2c(=O)[nH]1)Nc1ccccn1
  i, -3
O=C(Oc1ccccc1N1C(=O)C2CCCCC2C1=O)c1ccccc1F (stereo unspecified)
  i, -1.26

# Compound activity from PubChem.

# Not all compounds are listed; the hit share may differ from the screen's.
